CapD inh = CapD enzyme inhibition | z-score (test concentration not listed) | 140,000 tested, 0.23% active | purified CapD enzyme, fluorescence intensity read-out; hits give low values; some hits fall short of the stated cut | AID 492967;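 active = z-score under -4 in either of two replicates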;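 note: stock transfer was 100 nL into about 40 µL; score is relative to mean and spread of the plate; one replicate is shown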
AID504770 = E. coli YBA685 growth inhibition, screen for V. cholerae RctB inhibitors; z-score (concentration not given with the values); 130,000 tested, 0.27% active; AID 504770; E. coli YBA685 rctB-dependent plasmid, OD600 growth, 3 h; hits give low values;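 active = z-score under -2 on both plates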;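 note: wells of about 30 µL received 100 nL stock; score is relative to mean and SD of the test wells; the first replicate is given; strong numbers were not always called active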
An asterisk follows results filed as active; . = no result given.

Compound | CapD inh | AID504770
O=C(NC(CO)C(=O)O)c1ccncc1 (stereo not drawn) | . | -0.55
N#CCc1nc2ccccc2n1C(=O)CCN1C(=O)c2ccccc2C1=O | . | 0.8
COc1ccc(NC(=O)c2ccc3c(c2)C(=O)N(Cc2cccnc2)C3=O)cc1 | -0.68 | 0.15
O=c1c[n+]([O-])c2ccccc2n1OCc1ccccn1 | 1.5 | 2
Cn1c(=O)n(C)c2cc(/C=C3\SC(=Nc4ccccc4)N(c4ccccc4)C3=O)ccc21 | -0.11 | .
COC(=O)c1sc2ncccc2c1OCc1ccc(Cl)cc1Cl | 2.7 | .
Cc1c(C(=O)N2CCc3ccccc3C2)sc2nc(SCc3cccc([N+](=O)[O-])c3)n(CCc3ccccc3)c(=O)c12 | -0.27 | .
O=C(CCCn1c(=O)c2cccn2c2ccccc21)NCCc1ccccc1 | -0.82 | -1.1
CC1(C)CC(=O)C2=C(C1)OC1=C(C(=O)CC(C)(C)C1)C2c1cccc(O)c1 | -0.93 | 2.5
O=C(NCc1ccco1)c1ccc2c(=O)n(-c3ccccc3)c(=O)n(CC(=O)N3CCN(c4ccccc4)CC3)c2c1 | -0.32 | -0.65
CCOc1ccc(-n2c(=O)c3c4c(sc3n(CC(=O)NCC3CCCO3)c2=O)CCCC4)cc1 (stereo not drawn) | 24 | 0.35
FC(F)(F)c1cccc(-c2nnnn2-c2ccc(Cl)c(Cl)c2)c1 | -0.24 | .
CC(NC(=O)CCc1nc2ccccc2[nH]1)c1ccccc1 (stereo not drawn) | 0.43 | -0.45
O=C(Cn1ncc2ccsc2c1=O)NCCc1ccccc1 | -0.12 | 0.7
O=C1N(c2ccccc2)C(c2ccc(C(F)(F)F)cc2)C1(F)F (stereo not drawn) | . | 0.55
CC12CCC(C1)C(C)(C)C2OCC(O)CN1CCN(c2cccc(Cl)c2)CC1 (stereo not drawn) | -0.31 | -0.25
COc1ccc(C2CC(=O)C3=C(C2)NC(C)=C(C#N)C3c2ccc(N(C)C)cc2)cc1 (stereo not drawn) | 0.55 | -0.6
O=C(CNCc1ccccc1F)Nc1ccc(N2CCCC2)cc1 | . | 0.8
CC12COC3(C(=O)Nc4ccc(Br)cc4)CC1CCC32C (stereo not drawn) | -0.22 | .
Cn1cnc(S(=O)(=O)NCc2ccc3c(c2)OCO3)c1 | 0.02 | 0.75
O=C(/C=C/c1ccc(S(=O)(=O)N2CCOCC2)cc1)N(CCO)Cc1ccccc1 | . | -3.4
CS(=O)(=O)c1cccc(C(=O)Nc2nccs2)c1 | . | 0.75
C=CCn1c(C)cc(C(=O)CSc2nc(O)cc(=O)n2CCC)c1C | . | 0.05
CCOc1cc(C2C(C(=O)OCCSCC)=C(C)NC3=C2C(=O)CC(c2ccc(OC)cc2)C3)ccc1OC(C)=O (stereo not drawn) | 35 | .
CCCCS(=O)(=O)Nc1ccc2c(c1)ncn2C1CCCCC1 | -0.17 | 0.4
CCc1ccnc(NS(=O)(=O)c2ccc3c(c2)OCCCO3)c1 | 1.3 | -0.6
O=C(NC(=S)Nn1cnnc1)c1ccc(F)cc1Cl | . | -0.55
CSc1ncnc2nc[nH]c12 | 0.6 | 0.8
O=C1c2ccccc2C(=O)N1CNCC(O)c1ccccc1 (stereo not drawn) | 0.14 | -0.1
CC(=O)N1c2c(C)ccc(C)c2-c2ccccc2S1(=O)=O | -0.35 | .
CCCCC1(CC(=O)OC)C(=O)N(c2ccccc2)N(c2ccccc2)C1=O | -0.3 | .
COc1cccc(C(=O)/C=C2\NC(=O)CS2)c1 | -1.4 | -0.35
c1cncc(-c2nnc(-c3cccnc3)nn2)c1 | -0.35 | -1.3
CN(CCC#N)C(=O)Cn1nc(Cc2cccnc2)c2ccccc2c1=O | 0.21 | -0.3
O=S(=O)(Nc1ccc(Oc2ncccn2)c(Cl)c1)c1ccc(Cl)cc1 | -0.035 | .
N#Cc1ccc(C2Nc3cc(Cl)ccc3O2)cc1 (stereo not drawn) | -0.3 | -0.6
CCc1n[nH]c(=S)n1/N=C1\C(=O)N(CC(C)C)c2ccccc21 | . | -0.35
CCOC(=O)C1=CC2c3ccc(Br)cc3C=CC2OC1=O (stereo not drawn) | 0.91 | 0.85
CN(Cc1ccccc1)c1ncnc2c1nc1n2CCCCC1 | 0.85 | 0.75
CC(C)N=C(NC#N)NC(C)C | -0.21 | -0.6
O=C(NCC1COc2ccccc2O1)c1n[nH]c(=O)c2ccccc12 (stereo not drawn) | -0.51 | 0.1
O=C(Oc1ccccc1)Oc1cccc2ccccc12 | 0.72 | -0.4
Cc1onc(-c2ccccc2)c1C(=O)c1c[nH]c(C(=O)NCc2ccncc2)c1 | 0.15 | .
CC(C)N(C(=O)NCCC(=O)c1ccc(F)cc1)C(C)C | -0.1 | .
CSc1nc(-c2ccccc2)cc(=O)[nH]1 | -0.2 | .
Cn1nc(-c2ccc(Cl)cc2)cc1NC(=O)Cn1c2ccccc2c(=O)c2ccccc21 | 40 | .
COc1cc(C2Nc3ccccc3NC3=C2C(=O)CC(c2ccc(OC)c(OC)c2)C3)ccc1O (stereo not drawn) | -1.6 | .
CSc1nc2ccc([N+](=O)[O-])cc2s1 | -1.7 | .
COC(=O)C(CCCN1C(=O)c2ccccc2C1=O)(NC(C)=O)c1nnn(C)n1 (stereo not drawn) | 0.09 | -0.1
CC(C)C(=O)Oc1ccc2c3c(c(=O)oc2c1)CCC3 | 2.8 | -0.95

Compound profiles (already shown). Order of values: CapD inh, AID504770
CSc1ncnc2nc[nH]c12 is listed with 0.6, 0.8
O=C1c2ccccc2C(=O)N1CNCC(O)c1ccccc1 (stereo not drawn) is listed with 0.14, -0.1
CC(C)N=C(NC#N)NC(C)C is listed with -0.21, -0.6
CSc1nc2ccc([N+](=O)[O-])cc2s1 is listed with -1.7, .
CN(CCC#N)C(=O)Cn1nc(Cc2cccnc2)c2ccccc2c1=O is listed with 0.21, -0.3

(further entries)
Compound | CapD inh | AID504770
S=C(Nc1ccccc1)NC1CC2CCCC(C1)N2C1CC1 (stereo not drawn) | . | -0.5
Cn1c(C(=O)NCCCn2ccnc2)cc2ccccc21 | 0.3 | .
CCOC(=O)C1=C(O)/C(=C/c2ccc(O)cc2)SC1=Nc1cccc(Cl)c1 | 0.04 | .
O=C(NC(=S)Nc1ccccc1Cl)c1cnn2c(C(F)(F)F)cc(C(F)(F)F)nc12 | 0.37 | 0.8
O=C(On1c(-c2ccccc2F)nc2ccccc2c1=O)c1ccccc1Cl | -0.21 | .
Cc1ccc(S(=O)(=O)N2CCC(C)CC2)cc1 | 0.01 | 0.7
N#C/C(=C/c1ccccc1N1CCN(Cc2ccccc2)CC1)S(=O)(=O)c1ccccc1 | -1.2 | -1.1
CCOc1cc(/C=C2/SC(=O)NC2=O)ccc1Oc1ccc([N+](=O)[O-])cc1[N+](=O)[O-] | 0.78 | .
Cc1ccc(NC(=O)N2CCC(N(C)C(C)C)CC2)cc1C | 0.49 | -0.4
O=C(/C=C/c1ccccc1)Oc1nc2ccccc2s1 | 0.29 | 0.3
CC(C)(C)c1cc(NC(=O)CC#N)c(C(N)=O)s1 | 0.47 | .
NC[C@@H]1CC[C@@H](N)[C@@H](O[C@H]2[C@H](O)[C@@H](O[C@H]3O[C@H](CO)[C@@H](O)[C@H](N)[C@H]3O)[C@H](N)C[C@@H]2N)O1 | . | 0.85
CCOC(=O)c1sc(SCc2ccc(Cl)cc2)c2c1CCCC2=O | -0.18 | .
Cc1cccc(Cl)c1NC(=S)NN | 0.09 | .
O=C(COc1ccc(-c2nnco2)cc1)NCc1ccco1 | . | 0.75
CC1CCN(c2nc(N3CCCCC3)nc(N3CCCCC3)n2)CC1 | . | -0.45
COC(=O)c1[nH]c2ccc(F)cc2c1N | . | -0.85
CCN1CCN(CCNC(=O)c2oc(=O)c3ccccc3c2-c2ccc(C)cc2)CC1 | -0.46 | .
CCOC(=O)c1ccc(CN)o1 | 1.4 | 1.2
Cc1cc(NCc2cccnc2)nc(N)n1 | 0.58 | -0.85
O=C(Nc1cccc(C(F)(F)F)c1)c1ccc(N2CC3CC(C2)c2cccc(=O)n2C3)c(NC(=O)c2ccccc2)c1 (stereo not drawn) | -1.4 | .
COc1ccccc1/C=C/C(=O)OCC(=O)Nc1ccc(Cl)cn1 | . | 0.8
O=C(Nc1ccccc1)N1CCN(c2ccc(C(F)(F)F)cn2)CC1 | 0.14 | 0
Cc1cc(C)c(C#N)c(SCC(=O)Nc2sc3c(c2C#N)CCC(C(C)(C)C)C3)n1 (stereo not drawn) | . | -0.75
O=C(C1CCN(c2ncc(C(F)(F)F)cc2Cl)CC1)N1CCOCC1 | -0.15 | .
N#Cc1c(N)nc2sc(C(=O)c3ccc(Cl)cc3)c(N)c2c1-c1ccc(O)cc1 | 0.85 | .
Cc1sc2nc(SCC(=O)NCCCN3CCOCC3)n(-c3ccccc3)c(=O)c2c1C | -0.82 | .
O=C(N/C(=C\c1ccc2c(c1)OCO2)C(=O)N1CC2CC(C1)c1cccc(=O)n1C2)c1ccccc1F (stereo not drawn) | -0.25 | 0
S=C(NC1CC1)N1CCN(c2ccc(Cl)cc2)CC1 | -2.1 | -1.1
FC(F)(F)c1ccc(-c2ncc(-c3ccnc4ccccc34)c(-c3ccc(C(F)(F)F)nc3)n2)cn1 | -0.36 | .
Cc1ccc(Oc2ccc([N+](=O)[O-])cn2)c([N+](=O)[O-])n1 | -0.71 | .
CSc1nc(C)nc(Nc2ccc(Cl)cc2Cl)c1C#N | 0.97 | -1.6
O=C(c1ccccc1)c1cnc(Nc2ccccc2)s1 | 0.16 | 1.7
Cc1ccc(C2OC(=O)c3ccccc32)cc1F (stereo not drawn) | -0.06 | .
COc1ccc(Br)cc1C1Nc2ccc3ncccc3c2C2=C1C(=O)CCC2 (stereo not drawn) | 0.87 | .
Cc1cc(Oc2ccccc2)nc(Oc2ccc(=O)[nH]n2)n1 | 0.54 | -0.8
C=CCN1C(=O)/C(=C\c2ccc(-c3ccc(Cl)c([N+](=O)[O-])c3)o2)C(=O)NC1=S | -0.33 | .
COc1ccc(OCc2cc(=O)[nH]c3ccccc23)cc1 | . | 0
O=C(O)c1cc2nc(C3CC3)cc(C(F)(F)F)n2n1 | -0.95 | -0.35
COc1ccc(N(Cc2cc(-c3ccco3)on2)S(=O)(=O)c2cc(C)ccc2C)cc1 | . | 0
CCn1c(=O)n(CC)c2cc(S(N)(=O)=O)ccc21 | -0.34 | 0.45
COc1ccc2cc(CCNC(=O)Cc3ccccc3)c(=O)[nH]c2c1 | 4.4 | -0.35
COc1ccc2nc(Cl)c(CNCCN(C)C)c(N3CCCCC3)c2c1 | . | -0.75
CCOC(=O)C1=C(C)NC(=S)NC1c1c(F)cccc1Cl (stereo not drawn) | -2.1 | 0.1
O=C(O)/C=C/C(=O)Nc1ccccc1OC(F)(F)F | 0.36 | 0.3
O=C(N/N=C/c1c(O)ccc2ccccc12)C1CC12CCC2 (stereo not drawn) | . | -0.25
O=C(CSc1nc(-c2ccccc2)cs1)N1CCOCC1 | -0.17 | -0.1
O=C(NCc1ccccc1)NC(=O)c1ccccc1I | 0.11 | 0.05
COC(=O)c1ccccc1NS(=O)(=O)c1cc(S(=O)(=O)Nc2ccccc2C(=O)OC)c2cccc3c2c1NC3=O | 0.58 | .
CCCn1c2ccccc2c2nnc(SCCCC(=O)c3ccc4c(c3)OCCO4)nc21 | -0.42 | -0.5

Next part
Compound | CapD inh | AID504770
Cc1ccc(-c2onc(C)c2C)cc1S(=O)(=O)NCCC1=CCCCC1 | 0.72 | -0.4
CC1CCN(C(=O)COC(=O)c2n[nH]c3ccccc23)CC1 | 2.2 | -0.55
O=C(NCc1ccccn1)/C(=C/c1ccccc1Cl)c1ccccc1 | 72 | -0.25
COc1ccc(C2Nc3ccccc3C(=O)N2c2ccc(Cl)cc2)cc1COc1ccc(NC(C)=O)cc1 (stereo not drawn) | 24 | .
OC(c1ccccc1)c1oc2ccccc2c1-c1cnn(-c2ccccc2)c1 (stereo not drawn) | -0.35 | 1.2
Oc1ccc(Nc2nc3nonc3nc2Nc2ccccc2)cc1 | -2.2 | .
CC(C)(C)CC(=O)NCc1nc(-c2ccc(Cl)cc2)no1 | -0.38 | -0.6
O=C(O)c1ccccc1-c1ccc2cccnc2n1 | -0.75 | .
CCCOC(=O)C1=C(C)NC2=C(C(=O)CC(c3ccc(OC)c(OC)c3)C2)C1c1cc(OC)ccc1OC (stereo not drawn) | 6.2 | .
O=C(Nc1ccc(F)cc1F)c1csc(-c2cccc(C(F)(F)F)c2)n1 | 0.75 | .
CCOc1ccc(N2C(=O)CC(NC3CCN(c4ncccn4)CC3)C2=O)cc1 (stereo not drawn) | 1.5 | -0.1
CC(C)CC(NC(=O)Cc1ccsc1)C(=O)NN (stereo not drawn) | 0.11 | 2.2
CC(C)NS(=O)(=O)c1ccc(OCC(N)=O)cc1 | 0.44 | 0.35
COCCN1C(=O)c2oc3ccc(Br)cc3c(=O)c2C1c1ccc(Cl)cc1 (stereo not drawn) | 0.16 | 0.9
O=C1CCCN1c1ccc(S(=O)(=O)N2CCCCC2)cc1 | . | -0.75
N#CN=C(N)CSc1nc(-c2ccccc2)cc(-c2ccccc2)c1C#N | . | -0.6
O=C(Nc1ccn([C@H]2CC[C@@H](CO)O2)c(=O)n1)c1ccccc1 | 0.53 | -1.6
CCC(=O)Nc1cccc(C(=O)N/N=C/c2cc(OC)c(OC)cc2OC)c1 | 7.1 | .
CC1(C)CC(NC(=O)NCc2ccc3c(c2)OCO3)CC(C)(CNC(=O)NCc2ccc3c(c2)OCO3)C1 (stereo not drawn) | . | 0.05
